# Screens (PubChem)
# DUX4 txn inh = inhibitors of DUX4-driven ZSCAN4 reporter expression, primary screen, 293T cells, Gaussia and Italica luciferase. 37,000 tested, 0.8% active. activity change, negative = inhibition, % (no concentration beside the values). 293T-iDUX4 ZSCAN4-Gaussia luciferase reporter, 24 h; stronger effect = lower value;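 active means -10% or lower and over 25 points stronger than a control reporter; inconclusive means -10% or lower with a smaller gap; inactive means above -10%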;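 further: 0% = median of neutral control wells and -100% = median of positive control wells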
# DUX4 txn inh difference = recorded beside DUX4 txn inh, whose call it bears; Gaussia minus Italica difference, %; measured here: selective DUX4 reporter inhibition;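 worked out from the two reporters; negative = selective loss of the DUX4 reporter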
# DUX4 txn inh control = also measured in DUX4 txn inh; calls as there; activity change, negative = inhibition, %; measured here: Italica tet-on control reporter;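 0 = neutral control and -100 = positive control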
# * hit, by the source's call; ? = inconclusive; . = no result given. This is a subset; rates above refer to the full screens.
1	CC(C)(C)[S@](=O)N1Cc2cc(C(=O)N3CCc4ccccc4C3)nc(-c3cccc(-c4cccnc4)c3)c2[C@@H]1CCO
2	COc1ccc2c3c([nH]c2c1)[C@H](CO)N(Cc1ccc(Cl)cc1)CC31CN(Cc2ccccc2)C1
3	C[C@@H]1CN([C@@H](C)CO)C(=O)c2cccc(NC(=O)CCCCCC(=O)Nc3ccccc3N)c2O[C@@H]1CN(C)Cc1ccc(Cl)c(Cl)c1
4	CO[C@H]1CN(C)C(=O)c2ccc(NS(=O)(=O)c3c(C)noc3C)cc2OC[C@@H](C)NC[C@H]1C
5	C[C@H](CO)N1C[C@H](C)[C@@H](CN(C)C(=O)[C@H](C)c2ccccc2)OCc2ccccc2-c2ccccc2C1=O
6	CN1C(=O)c2cc(NC(=O)c3ccc(C(F)(F)F)cc3)ccc2OC[C@H]2O[C@H](CC(=O)NCc3ccc4c(c3)OCO4)CC[C@@H]21
7	COc1ccccc1C#Cc1ccc([C@@H]2[C@@H](CO)N3CCCCN(CCC(F)(F)F)C[C@H]23)cc1
8	COc1ccc(S(=O)(=O)N[C@@H]2CC[C@H](CC(=O)O)O[C@H]2CO)cc1

assay / compound	1	2	3	4	5	6	7	8
DUX4 txn inh	1.6	?	0.7	-2.2	?	-2.2	0.6	0.1
DUX4 txn inh control	2.6	.	4.7	6.2	.	-2.1	3.4	2.5
DUX4 txn inh difference	-1.0	.	-4.0	-8.5	.	0.0	-2.9	-2.4

9	CN1C(=O)c2cc(NS(C)(=O)=O)ccc2OC[C@@H]2O[C@@H](CC(=O)N3CCOCC3)CC[C@@H]21
10	O=C(C[C@H]1C[C@H]2c3cc(NC(=O)c4ccc5c(c4)OCO5)ccc3O[C@H]2[C@H](CO)O1)NCC(F)(F)F
11	O=C(C[C@@H]1CC[C@H]2[C@@H](COC[C@@H](O)CN2Cc2ccc(C(F)(F)F)cc2)O1)N1CCc2ccccc2C1
12	Cc1noc(C)c1S(=O)(=O)N(C)C[C@H]1OCCCC[C@H](C)Oc2ccc(NS(=O)(=O)c3cccs3)cc2C(=O)N([C@H](C)CO)C[C@H]1C
13	CC(C)CC#Cc1ccc([C@H]2[C@H](CO)N3C(=O)CN(C(=O)NC4CCCCC4)C[C@@H]23)cc1
14	O=C(c1cccc(F)c1)N1CC2(C1)[C@@H](c1ccccc1)[C@@H](CO)N2Cc1ccccn1
15	O=C(CN1CCOCC1)NCC[C@@H]1CC[C@@H](NC(=O)Cc2ccccn2)[C@H](CO)O1
16	CC(C)c1cn(CC[C@H]2CC[C@@H](NC(=O)c3cccc(F)c3)[C@H](CO)O2)nn1

assay / compound	9	10	11	12	13	14	15	16
DUX4 txn inh	-2.4	-1.3	-2.9	-3.2	?	-5.3	6.3	-3.1
DUX4 txn inh control	1.2	-4.7	-4.8	0.7	.	8.9	1.2	0.3
DUX4 txn inh difference	-3.7	3.4	1.9	-3.9	.	-14.1	5.1	-3.4

# Results in sequence from the list:
# DUX4 txn inh difference for entries 12 to 16, in order: -3.9, ., -14.1, 5.1, -3.4

# (continued)
17	Cc1ccc(S(=O)(=O)N(C)C[C@H]2Oc3cc(C#CC4CCCC4)ccc3S(=O)(=O)N([C@H](C)CO)C[C@@H]2C)cc1
18	N#C[C@H]1[C@H](c2ccc(C#Cc3cccc(F)c3)cc2)[C@@H](CO)N1C(=O)C1CCC1
19	O=S(=O)(c1cccs1)N1CCCCN2[C@H](C1)[C@@H](c1ccc(/C=C/c3ccccc3)cc1)[C@@H]2CO
20	CO[C@@H]1CN(C)C(=O)c2cc(NC(=O)c3nc4ccccc4s3)ccc2OC[C@@H](C)NC[C@@H]1C
21	CO[C@H](CN(C)C(=O)C1CCOCC1)[C@H](C)CN(C(=O)Nc1ccc(F)cc1)[C@@H](C)CO
22	O=C(C[C@@H]1C[C@H]2c3cc(NC(=O)C4CCOCC4)ccc3O[C@H]2[C@H](CO)O1)NCC(F)(F)F
23	COc1ccc2c3c(n(C)c2c1)[C@@H](CO)NCC31CCN(Cc2ccccc2Cl)CC1
24	C[C@@H]1CN([C@@H](C)CO)C(=O)Cc2cc(NC(=O)C3CCCCC3)ccc2O[C@@H]1CN(C)Cc1ccc(Cl)c(Cl)c1

assay / compound	17	18	19	20	21	22	23	24
DUX4 txn inh	2.8	1.0	-6.5	-3.8	0.6	-1.3	-0.4	2.6
DUX4 txn inh control	-0.5	-4.3	-4.5	1.9	0.1	5.0	1.5	1.0
DUX4 txn inh difference	3.3	5.3	-2.0	-5.6	0.5	-6.3	-1.8	1.6

25	Fc1cccc(-c2ccc([C@@H]3[C@@H]4CN(Cc5nccs5)C[C@H]3N4)cc2)c1
26	C[C@@H]1CN([C@H](C)CO)C(=O)CCCn2nncc2CO[C@H]1CN(C)Cc1cccc(C(=O)O)c1
27	COc1ccc2c3c([nH]c2c1)[C@H](CO)N(Cc1ccccn1)CC31CN(Cc2cccc(F)c2)C1
28	CN(C)CC(=O)N1[C@@H](C#N)[C@@H](c2ccc(-c3ccccc3F)cc2)[C@@H]1CO
29	C[C@H](CO)N1C[C@H](C)[C@@H](CN(C)Cc2ccc(Cl)c(Cl)c2)OCc2cnnn2CCCC1=O
30	O=C(C[C@H]1CC[C@@H]2NC[C@H](O)COC[C@H]2O1)NCc1ccc2c(c1)OCO2
31	CN(C)CC#Cc1ccc([C@@H]2[C@H](CO)N3C(=O)CN(C(=O)Cc4cccnc4)C[C@@H]23)cc1
32	CC(=O)N1[C@@H](CO)[C@H](c2ccccc2)C12CN(C(=O)Nc1ccccc1F)C2

assay / compound	25	26	27	28	29	30	31	32
DUX4 txn inh	?	3.6	10.0	-0.3	-7.0	8.1	12.6	9.9
DUX4 txn inh control	.	3.2	10.0	0.7	1.3	-2.5	8.5	8.4
DUX4 txn inh difference	.	0.4	0.0	-1.0	-8.2	10.6	4.0	1.5

# Part of the list above in order of molar mass, smallest number first.
25	Fc1cccc(-c2ccc([C@@H]3[C@@H]4CN(Cc5nccs5)C[C@H]3N4)cc2)c1
28	CN(C)CC(=O)N1[C@@H](C#N)[C@@H](c2ccc(-c3ccccc3F)cc2)[C@@H]1CO
30	O=C(C[C@H]1CC[C@@H]2NC[C@H](O)COC[C@H]2O1)NCc1ccc2c(c1)OCO2
32	CC(=O)N1[C@@H](CO)[C@H](c2ccccc2)C12CN(C(=O)Nc1ccccc1F)C2
31	CN(C)CC#Cc1ccc([C@@H]2[C@H](CO)N3C(=O)CN(C(=O)Cc4cccnc4)C[C@@H]23)cc1
22	O=C(C[C@@H]1C[C@H]2c3cc(NC(=O)C4CCOCC4)ccc3O[C@H]2[C@H](CO)O1)NCC(F)(F)F
27	COc1ccc2c3c([nH]c2c1)[C@H](CO)N(Cc1ccccn1)CC31CN(Cc2cccc(F)c2)C1
26	C[C@@H]1CN([C@H](C)CO)C(=O)CCCn2nncc2CO[C@H]1CN(C)Cc1cccc(C(=O)O)c1
29	C[C@H](CO)N1C[C@H](C)[C@@H](CN(C)Cc2ccc(Cl)c(Cl)c2)OCc2cnnn2CCCC1=O

assay / compound	25	28	30	32	31	22	27	26	29
DUX4 txn inh	?	-0.3	8.1	9.9	12.6	-1.3	10.0	3.6	-7.0
DUX4 txn inh control	.	0.7	-2.5	8.4	8.5	5.0	10.0	3.2	1.3
DUX4 txn inh difference	.	-1.0	10.6	1.5	4.0	-6.3	0.0	0.4	-8.2

# (continued)
33	N#C[C@@H]1[C@@H](c2ccc(C#Cc3ccc(F)cc3)cc2)[C@H](CO)N1C(=O)C1CCCC1
34	Cc1ccccc1-c1ccccc1[C@H]1[C@@H](CO)N(C(=O)c2ccccc2)[C@H]1C#N
35	COCC(=O)N1[C@H](C#N)[C@H](c2ccc(C3=CCCCC3)cc2)[C@@H]1CO
36	CN(C)CC(=O)Nc1ccc2c(c1)[C@@H]1C[C@@H](CC(=O)NCc3ccc4c(c3)OCO4)O[C@@H](CO)[C@@H]1O2
37	CN1C(=O)c2cc(NC(=O)Nc3ccc(Cl)cc3)ccc2OC[C@H]2O[C@H](CC(=O)NCCN3CCCCC3)CC[C@@H]21
38	CS(=O)(=O)Nc1ccc2c(c1)[C@@H]1C[C@@H](CC(=O)NCC3CC3)O[C@H](CO)[C@@H]1O2
39	CCCNC(=O)[C@H]1[C@H](CO)[C@H]2Cn3c(ccc(-c4cccnc4)c3=O)[C@H]2N1CCC
40	C[C@@H]1CN([C@H](C)CO)C(=O)c2ccccc2-c2ccccc2CO[C@H]1CN(C)C(=O)NC1CCCCC1

assay / compound	33	34	35	36	37	38	39	40
DUX4 txn inh	4.4	?	0.3	1.2	-1.9	3.4	8.3	-5.5
DUX4 txn inh control	6.5	.	-0.2	2.7	-0.1	-1.8	0.7	-1.6
DUX4 txn inh difference	-2.0	.	0.5	-1.5	-1.8	5.3	7.6	-3.9

41	C[C@H]1CN([C@@H](C)CO)C(=O)c2cc(-c3cccc(F)c3)cnc2O[C@@H]1CN(C)Cc1ccccn1
42	COc1ccc(CN2C[C@H](C)[C@H](OC)CN(C)C(=O)c3cc(NC(=O)c4nc5ccccc5s4)ccc3OC[C@@H]2C)cc1
43	CN1C(=O)c2cc(NC(=O)C3CCOCC3)ccc2OC[C@@H]2O[C@@H](CC(=O)NCc3ccccc3F)CC[C@H]21
44	Cc1noc(C)c1S(=O)(=O)Nc1ccc2c(c1)C(=O)N([C@@H](C)CO)C[C@@H](C)[C@H](CN(C)C(=O)NC1CCCCC1)O2
45	C[C@H](CO)N1C[C@H](C)[C@H](CN(C)C(=O)c2cccc(F)c2)Oc2cc(C#CC3CC3)ccc2S1(=O)=O
46	COC(=O)C[C@@H]1CC[C@H]2[C@@H](COC[C@@H](O)CN2CCC(F)(F)F)O1
47	C[C@H](CO)N1C[C@H](C)[C@@H](CN(C)S(=O)(=O)c2cccs2)Oc2c(NS(=O)(=O)c3ccc(F)cc3)cccc2C1=O
48	CC(=O)N1[C@H](CO)[C@@H](c2ccccc2)[C@@H]1CN(CC1CCC1)C(=O)CN(C)C

assay / compound	41	42	43	44	45	46	47	48
DUX4 txn inh	-4.2	?	2.9	2.3	-0.7	10.2	-1.6	2.5
DUX4 txn inh control	-5.8	.	7.4	-11.4	-2.2	5.5	2.8	1.8
DUX4 txn inh difference	1.6	.	-4.5	13.7	1.5	4.7	-4.5	0.7

49	CC(C)C#Cc1ccc([C@H]2[C@@H](C#N)N(C(=O)C3CCC3)[C@H]2CO)cc1
50	CO[C@@H]1CN(C)C(=O)c2cc(NC(=O)NC(C)C)ccc2OC[C@@H](C)N(C(=O)C2CCC2)C[C@@H]1C
51	CCCC(=O)N1CCC2(CC1)CN(S(C)(=O)=O)[C@@H](CO)c1c2c2ccc(OC)cc2n1C
52	CCNC[C@H]1[C@@H](c2ccccc2)[C@@H](CO)N1C(=O)Cc1ccccn1
53	CCCNC(=O)C[C@@H]1CC[C@@H]2[C@H](COC[C@@H](O)CN2C(=O)c2ccc(F)cc2)O1
54	O=C(CC1CC1)N1CC(=O)N2[C@H](C1)[C@H](c1ccc(/C=C/c3ccccc3)cc1)[C@@H]2CO
55	CC(C)NC(=O)N[C@H]1CC[C@@H](CCNS(=O)(=O)Cc2ccccc2)O[C@@H]1CO
56	COC(=O)[C@@H]1[C@@H](CO)[C@@H]2Cn3c(ccc(-c4ccc(F)cc4)c3=O)[C@@H]2N1C

assay / compound	49	50	51	52	53	54	55	56
DUX4 txn inh	-1.7	-5.5	9.9	-1.3	4.2	-8.2	-1.9	-9.2
DUX4 txn inh control	2.0	4.1	-2.6	-5.2	7.9	-0.8	5.8	1.2
DUX4 txn inh difference	-3.7	-9.6	12.6	3.9	-3.7	-7.4	-7.7	-10.4

57	Cc1noc(C)c1NC(=O)Nc1ccc2c(c1)C(=O)N(C)[C@@H]1CC[C@H](CC(=O)NCc3ccc(Cl)cc3)O[C@@H]1CO2
58	Cc1cccc(S(=O)(=O)N2C[C@@H](O)COC[C@@H]3O[C@H](CC(=O)NCc4ccc5c(c4)OCO5)CC[C@H]32)c1
59	CCCNC(=O)N1C[C@@H]2[C@H](c3ccccc31)[C@H](CO)N2C(=O)CN1CCOCC1
60	C/C=C/c1ccc([C@H]2[C@@H](CO)N(CCC)[C@@H]2CN(CC)C(=O)c2ccccn2)cc1
61	CN1C(=O)c2cc(NS(C)(=O)=O)ccc2OC[C@H]2O[C@@H](CC(=O)N3CCOCC3)CC[C@H]21
62	CCC(=O)N1CC2(C1)CN(Cc1cccc(Cl)c1)[C@@H](CO)c1[nH]c3cc(OC)ccc3c12
63	CN(C)C(=O)c1ccc(-c2ccc([C@@H]3[C@@H](CO)N4CCCCN(CC5CC5)C[C@H]34)cc2)cc1
64	CCCN(C)C[C@@H]1Oc2ncc(-c3cccc(OC)c3)cc2C(=O)N([C@H](C)CO)C[C@@H]1C
65	C/C=C/c1ccc([C@@H]2[C@H](CO)N(C(=O)c3cnccn3)C23CN(C(=O)CC)C3)cc1
66	Cn1cnc(CCNC(=O)C[C@@H]2CC[C@H]3[C@@H](COC[C@@H](O)CN3C(=O)Nc3ccccc3)O2)c1

assay / compound	57	58	59	60	61	62	63	64	65	66
DUX4 txn inh	1.9	5.4	4.2	1.8	2.1	?	-2.1	-3.1	-3.5	7.3
DUX4 txn inh control	-2.6	1.8	0.3	0.5	8.3	.	4.5	-1.7	4.8	2.6
DUX4 txn inh difference	4.5	3.5	3.9	1.3	-6.3	.	-6.6	-1.4	-8.3	4.7
